gsp antag = gsp mutant antagonism | gsp-mutant cells, cAMP HTRF, 30 min; control for the full effect not named in the record | Potency, µM (highest dose often 76.9 µM), for the others: at the highest dose activity change, negative = inhibition, actives largely listed as inhibitors | 0.4% of 340,000 active | AID 624288; active = falling curve of any shape with a large fitted effect; inconclusive = falling curve, mostly with a smaller effect; inactive = flat or rising curve; cell line not stated here;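 note: intracellular cAMP measured with PDE inhibitor Ro 20-1724 present during compound exposure; potency is the fitted concentration of half-maximal effect; % is set by controls: 0 for no effect and ±100 for the full control effect; nearly all actives have a fitted effect of over 65% in size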
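HTRF cAMP measurement after 30 min RT detection following 30 min, 37C compound treatment alongside […] (added as 300 uM solution) in G418-selected cells seeded at 2000/well and grown 16–24 h.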
D2 potentiator = human D2 receptor positive allosteric modulation | P14416 | DiscoveRx D2 beta-arrestin cells, luminescence, 90 min; 100% = 57 uM dopamine signal | potentiation, % (no concentration beside the values) | 0.23% of 360,000 active; active = potentiation of 50% or more; inconclusive = 30% to 50%; inactive = 30% or less;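 note: compound concentration not given in the record; tested on top of an EC20 dose of dopamine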
Target sequence (P14416 whole entry, looked up): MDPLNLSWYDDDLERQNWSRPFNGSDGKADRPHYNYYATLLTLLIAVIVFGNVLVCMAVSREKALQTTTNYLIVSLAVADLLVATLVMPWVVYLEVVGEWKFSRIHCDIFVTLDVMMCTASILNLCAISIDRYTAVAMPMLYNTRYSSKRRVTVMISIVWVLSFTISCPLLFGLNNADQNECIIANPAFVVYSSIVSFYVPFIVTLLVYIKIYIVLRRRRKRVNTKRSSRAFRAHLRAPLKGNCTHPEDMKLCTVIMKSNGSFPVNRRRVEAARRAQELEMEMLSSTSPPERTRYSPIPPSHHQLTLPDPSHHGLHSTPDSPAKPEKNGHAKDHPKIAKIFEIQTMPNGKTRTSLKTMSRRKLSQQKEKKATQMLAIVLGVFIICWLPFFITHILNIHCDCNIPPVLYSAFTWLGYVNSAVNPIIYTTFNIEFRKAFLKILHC
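PathHunter D2 cells, attached overnight at 37 deg C, received compound in DMSO plus dopamine at EC20 (50 nM final) for 90 min at 37 deg C. Beta-arrestin recruitment was read as luminescence after 1 h with detection reagent at ambient temperature.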
D2 ag = human D2 receptor agonism in beta-arrestin assay; P14416; DiscoveRx PathHunter D2 beta-arrestin, luminescence, 90 min; 100% = 57 uM dopamine signal; activation, % (test concentration not listed); 0.084% of 360,000 active; AID 624465; in the data active = activation above about 40%; inconclusive = about 15% to 40%; inactive = below about 15%; note: compound concentration not given in the record; the text of the record calls up to 30% inactive
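Agonist mode: compounds alone added to overnight-plated D2 PathHunter cells for 90 min at 37 C, with 57 uM final dopamine (EC100) defining full response. Beta-arrestin recruitment detected by chemiluminescent reagent, read after 1 h at ambient temperature.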
gsp ag = gsp mutant agonism. AID 624287. gsp mutant cells, cAMP HTRF, 30 min; control for the full effect not named in the record. Potency, µM (top dose mostly 76.9 µM), without a hit: at the top dose activation (cAMP increase), hits mostly activators. 0.13% of 340,000 active; active = well fitted activation curve with a large enough effect; inconclusive = small, poorly fitted or top-dose-only effect, or another doubt; inactive = no such curve, though single readings can be large or run the other way; cell line not stated here;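 note: phosphodiesterase inhibitor Ro 20-1724 added with compounds to block cAMP breakdown; potency is the fitted concentration of half-maximal effect; nearly all actives have a fitted effect of over 60% in size; about a fifth of the inactives were tested at one dose only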
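Cells stably selected in G418 were plated at 2000/well, grown 16-24 hr, then given compounds in DMSO with the PDE inhibitor […] (300 uM solution added) for 30 min at 37C; cAMP was read by HTRF.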
CtBP-E1A blk = blocks the CtBP interaction with E1A; AlphaScreen GST-E1A/His-CtBP binding, 1536-well; hits give low values; control for the full effect not named in the record; 0.49% of 340,000 active; activity change, % (no concentration beside the values); AID 651724; in the data active means activity change below about -65%; inconclusive means about -30% to -65%; inactive means above about -30%; note: % is set by controls: 0 for no effect and ±100 for the full control effect; compound concentration not given in the record
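Homogeneous bead-based format: GST-tagged E1A captured on glutathione donor beads, His-tagged CtBP on nickel acceptor beads; compounds precede bead addition by 2 h at 37 °C.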
Six1-Eya2 blk = inhibitors of human Six1/Eya2 interaction; AlphaScreen GST-Six1/His-Eya2 binding, biochemical; hits give low values; control for the full effect not named in the record; activity change, % (test concentration not listed); 0.56% of 360,000 active; in the data active = activity change below about -65%; inconclusive = about -30% to -65%; inactive = above about -30%; note: % is set by controls: 0 for no effect and ±100 for the full control effect; compound concentration not given in the record
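AlphaScreen with GST-Six1 and His-Eya2 (5X mix: 250 nM and 500 nM), glutathione donor and nickel acceptor beads; buffer 50 mM Tris pH 8.0, 300 mM NaCl, 1 mM TCEP; 1 h at 37 C in the dark.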
An asterisk follows results filed as active; ? = inconclusive; nt = no result given; [ ] = remark or other dose.

canonical_smiles	gsp antag	CtBP-E1A blk	gsp ag	D2 ag	D2 potentiator	Six1-Eya2 blk
C=CC[C@H](CC(=O)NCCO)C(=O)N[C@H](COC(=O)[C@@H](CC=C)CC(=O)OC(C)(C)C)Cc1ccccc1	4%	nt	-36%	-3.4	-7	12
N#C/C(=N\Nc1ccccc1)C(=N)N1CCOCC1	-2%	-21	11%[15.4 µM]	-4.3	-5	-6
CCn1c2ccc(F)cc2c2nnc(SCCN3CCCCC3)nc21	18%	-7	-5%[15.4 µM]	-1.1	-25	-6
CCN(CC(=O)NCc1cccs1)C(=O)/C=C/c1cc(OC)ccc1OC	-1%	-15	?	-3.7	-5	3
O=C(c1cccc2c1-c1ccccc1C2)N1CCCCC1	3%	5	-22%[15.4 µM]	-6.7	-6	5
CCn1c(SCC(=O)c2c[nH]c3ccccc23)nc2cc(S(=O)(=O)N3CCOCC3)ccc21	-9%	2	-4%	-1.1	-8	-11
CCCOc1ccc(F)cc1-c1cc(C(=O)NCCOC)[nH]n1	nt	0	nt	3.6	4	-5
CCOc1ccccc1NC(=O)c1nnn(CC(=O)Nc2ccc3c(c2)OCO3)c1N	-9%	-5	-58%[inhibitor]	-5.3	-7	-3
Cc1cc(/C=C2/NC(=O)N(Cc3ccccc3F)C2=O)c(C)n1-c1ccccn1	-9%	14	-8%[15.4 µM]	-7.2	2	5
CN(CC(=O)Nc1ncn[nH]1)S(=O)(=O)c1cc(Cl)ccc1Cl	3%	-15	-46%[inhibitor]	-1.8	-8	?
CN(C)c1cccc(C(=O)OCc2cc(=O)oc3cc(O)ccc23)c1	-10%	-1	0%[15.4 µM]	-0.9	-5	-30
O=C(Nc1ccc(OCC(F)(F)C(F)F)c(C(F)(F)F)c1)c1ccccc1	-27%	3	18%	-0.5	0	14
Cc1ccc(S(=O)(=O)N2CCOCC2)cc1C(=O)OC1CCCCC1=O (stereo not given)	-3%	5	1%	2.2	-1	3
COc1ccc(NS(=O)(=O)c2cccc(C(=O)N(C)Cc3ccc(SC)cc3)c2)cc1	-53%	0	?	-2.5	-21	12
CC(=O)/C=C(\C)N=Nc1c(O)[nH]c2ccccc12	1%	?	0%[15.4 µM]	2.8	0	?
CCOC(=O)C1CCN(c2ccc([N+](=O)[O-])cc2)CC1	-8%	-13	7%	-2.4	-9	-17
CC(C(=O)Nc1cc(C(F)(F)F)ccc1N1CCOCC1)N1C(=O)C2CC=CCC2C1=O (stereo not given)	5%	5	11%	2.6	1	8
O=C(NC1CC1)C1=C[C@H](c2ccccc2)C[C@H](OCc2ccc(CO)cc2)O1	-1%	-9	-7%	-1.8	-5	-5
S=c1[nH]cc2cnccn12	nt	5	-11%	-4.0	-11	-5
N#Cc1cc(Oc2ccc(Cl)cc2)c(N2CCOCC2)cc1C#N	-5%	11	-10%[15.4 µM]	-4.0	-7	-5

Compound profiles, as listed above. Order of screens: gsp antag	CtBP-E1A blk	gsp ag	D2 ag	D2 potentiator	Six1-Eya2 blk
Record of COc1ccc(NS(=O)(=O)c2cccc(C(=O)N(C)Cc3ccc(SC)cc3)c2)cc1 = -53%	0	?	-2.5	-21	12
Record of CCOc1ccccc1NC(=O)c1nnn(CC(=O)Nc2ccc3c(c2)OCO3)c1N = -9%	-5	-58%[inhibitor]	-5.3	-7	-3

(further entries)
canonical_smiles	gsp antag	CtBP-E1A blk	gsp ag	D2 ag	D2 potentiator	Six1-Eya2 blk
COc1ccc(NC(=O)CSc2nncn2C)cc1OC	5%	4	-24%	-1.4	-4	8
O=C(NNc1cc(N2CCOCC2)nc(N2CCOCC2)n1)C12CC3CC(CC(C3)C1)C2	5%	2	-34%[inhibitor]	-1.8	-11	0
COc1ccc(C(CNC(=O)c2cc3c(s2)CCCC3)N2CCOCC2)cc1 (stereo not given)	-8%	-1	?	-1.9	-23	4
Cc1ccsc1S(=O)(=O)N1CCC(CO)(CC2CCCCO2)CC1 (stereo not given)	8%	4	-1%[15.4 µM]	-0.5	-4	7
CNc1nnc(SCC(=O)N2c3ccccc3NC(=O)CC2C)s1 (stereo not given)	11%	-8	-32%[inhibitor]	-1.7	0	2
CC(C)c1nnc(NC(=O)C2CCN(c3cnccn3)CC2)s1	-5%	0	9%	-0.2	-3	3
COc1ccccc1/C=N/NC(=O)c1ccc(N(C)S(=O)(=O)c2ccccc2)cc1	29%	nt	-10%	-1.1	-10	2
O=S(=O)(Nc1ccon1)c1ccc(Br)cc1	9%	6	1%	0.6	5	3
CCc1cc2ccc(OC)cc2nc1SCC(=O)NNC(C)=O	10%	-1	-4%[15.4 µM]	-6.0	-4	-2
COCc1cc(C)n(CC(=O)Nc2ccccc2C(=O)OC)c(=O)c1C#N	6%	2	-24%	-1.8	8	3
C=CCN1C(=O)C(CC(=O)O)SC1=Nc1ccc(C(=O)O)cc1 (stereo not given)	3%	19	-8%[15.4 µM]	-3.5	-7	-6
Cc1cccc(C)c1NC(=O)CNC(=O)CNC(=O)Cc1cccc2ccccc12	-6%	2	-102%[inhibitor]	-3.3	-3	2
Cc1cc(NCc2ccc(F)cc2)nc2cc(Cl)ccc12	0%	nt	-21%	12	-6	24
COC(=O)C1=C(C)N(CC2CCCO2)C(=O)C1 (stereo not given)	-2%	-2	-66%[inhibitor]	-1.8	-2	-2
COc1ccc(N(CC(=O)NCc2ccco2)S(C)(=O)=O)c(OC)c1	-2%	10	?	0.0	-5	0
Cc1cccc(NC(=O)c2ccc(S(=O)(=O)NCc3cccnc3)cc2)c1C	-9%	21	0%[15.4 µM]	2.0	-5	12
N#CCSc1nnc(-c2cnccn2)n1Cc1ccccc1	6%	2	-28%	-1.8	-3	0
COc1ccccc1/C=C/C(=O)OCC(=O)Nc1nnc(-c2ccccc2)o1	-9%	-2	-33%[inhibitor]	0.1	-1	?
COc1ccc2oc(=N)c(C(=O)Nc3cccc(C)c3C)cc2c1	6%	-2	-4%[15.4 µM]	-1.3	-2	12
O=C(O)CN1C(=O)/C(=C2\SC(=S)N(C(Cc3ccccc3)C(=O)O)C2=O)c2ccccc21 (stereo not given)	1%	-2	-1%[15.4 µM]	-3.3	-5	-8
Cc1cccc(S(=O)(=O)Nc2ccncc2)c1	-2%	7	17%[15.4 µM]	-2.7	-8	2
COc1cccc(CN(C)C(=O)c2ccc(S(=O)(=O)Nc3cccc(C)c3C)cc2)c1OC	nt	-5	7%	1.0	-3	-4
Cc1cc(C)n(Cc2ccc(NC(=O)c3c([N+](=O)[O-])c(C)nn3C)cc2)n1	7%	0	-3%	-0.4	-7	-1
C#CCOc1c(Cl)cc(/C=N/NC(N)=S)cc1OCC	8%	-8	2%	1.4	11	-11
CCC1NC(=O)c2cc3ccccc3cc2-n2c1nc1cc(OC)c(OC)cc1c2=O (stereo not given)	nt	-2	-30%[inhibitor]	-1.2	nt	-5
CCCn1c(C(C)Nc2nc(-c3ccc(C)cc3)cs2)nc2cc(Cl)c(N3CCCCC3)cc21 (stereo not given)	4%	-4	nt	-0.9	-52	-5
COc1cc(OC)c(C(=O)Nc2cc(S(=O)(=O)N3CCOCC3)ccc2N2CCN(C)CC2)cc1OC	7%	-4	14%	-0.3	-1	-6
CN(c1ccccc1)S(=O)(=O)c1cccc(NC(=O)CCNC(=O)c2ccc(Cl)cc2)c1	-20%	-1	-23%	-2.4	-16	-9
Cc1ccc(S(=O)(=O)N(C)C)cc1NC(=O)c1sccc1Cl	8%	-22	-37%[inhibitor][15.4 µM]	1.9	-12	-22
CCOC(=O)c1cnc2c(c(C)nn2-c2ccc(C)cc2)c1Cl	7%	1	27%	-15	-13	3
CC(C)OCCCNC(=O)COc1ccc2oc3c(c2c1)CCCC3	2%	9	34%	-4.2	-11	0
O=C(c1cc(-c2ccccc2O)on1)N1CCCC1	8%	-1	-1%	-2.4	-1	0
N/C(=N\OC(=O)Oc1ccccc1)c1ccc(Cl)cc1	-12%	-1	-9%	-1.3	-5	4
CC(C)[C@H](NC(=O)C1CCCC1)c1nc2ccccc2[nH]1	2%	-17	9%	-2.6	-36	-6
COc1ccc(C2OCC3(CO2)SC(=O)NC3=O)cc1OC (stereo not given)	-6%	3	1%	1.2	-4	2
C[C@]12CCC3C(CC[C@H]4CC(O)CC[C@]34C)C1CC/C2=N/NC(=O)c1ccncc1 (stereo not given in full)	-22%	1	12%	2.4	4	-5
Cc1cc([N+](=O)[O-])cnc1NC(C)c1ccccc1 (stereo not given)	-8%	-12	-3%	-10	-16	-7
O=C(COc1ccccc1)Nc1c2c(nn1-c1ccccc1)CS(=O)(=O)C2	-19%	2	15%	-1.9	-11	-10
COc1ccc(N2CCN(C(=O)c3c(-c4ccccc4)noc3C)CC2)cc1	-7%	-15	?	-1.0	0	-7
NS(=O)(=O)c1cccc(NS(=O)(=O)c2ccc(/C=C/C(=O)OCC(=O)c3ccccc3)cc2)c1	-24%	-2	11%	-1.5	0	-8
CC(C)C(=O)NC(Nc1ccccc1F)C(Cl)(Cl)Cl (stereo not given)	-2%	5	29%	0.0	-6	5
O=C(c1ccc2c(c1)OCCO2)N1CCN(Cc2ccccc2)CC1	15%	-1	-38%[inhibitor]	-2.4	-17	0
CCCNC(=O)C1(C)CCN(Cc2cc(-c3ccccc3)on2)C1 (stereo not given)	nt	-13	nt	5.1	-7	7
CCOc1cccc(C(=O)Nc2ccncc2)c1	-12%	9	-12%	2.6	-9	1
C=CCn1c(SCC(=O)NC2CCS(=O)(=O)C2)nnc1-c1cc2c(s1)CCC(CC)C2 (stereo not given)	-6%	-7	4%[15.4 µM]	3.5	-5	-4
CO/N=C(\C)c1ncc(C(F)(F)F)cc1N1CCOCC1	-2%	6	-10%	-2.6	0	3
O=C(c1cccc(C(F)(F)F)c1)N1CCC(=O)N(C(CO)Cc2ccccc2)CC1 (stereo not given)	8%	6	-39%	-1.4	1	0
CN(CC1CCOCC1)C(=O)CC1C(=O)NCCN1Cc1ccc(Cl)c(F)c1 (stereo not given)	0%	0	12%	-4.2	-9	-3
CCCC(=O)Nc1ccc(C(=O)Nc2nnc(COCC)s2)cc1	4%	49	4%	-3.2	6	26
Cc1ccc(C(=O)Nc2nc(C(N)C(C)C)cs2)cc1 (stereo not given)	nt	-14	nt	-4.5	-17	-7
Cc1c(NC(=O)COC(=O)c2ccc(Br)o2)c(=O)n(-c2ccccc2)n1C	-4%	12	-33%[15.4 µM]	1.2	-6	3
O=C(C#Cc1ccccc1)c1ccccc1	nt	-10	?	-10	-34	4
Cc1cccc(NC(=O)c2cccc(C(=O)Nc3cccc(C)n3)c2)n1	8%	-1	-7%[15.4 µM]	1.1	-1	-4
COc1ccc(C2CC(=O)Oc3cc(OC)ccc32)cc1 (stereo not given)	-1%	1	nt	3.7	nt	-10
C[C@H]1CN([C@@H](C)CO)C(=O)c2cccc(NC(=O)Nc3ccc(F)cc3)c2O[C@@H]1CN(C)Cc1ccc(C(=O)O)cc1	6%	1	2%	-1.6	-10	1
O=S(=O)(NCCc1ccc(Cl)cc1)c1cccc2cccnc12	2%	nt	1%	1.5	-7	0
